Screening results: PubChem, ICCB-Longwood Screening Facility, Harvard Medical School
PV pol inh: poliovirus RdRp elongation inhibitors, primary screen, biochemical, fluorescence polarization, total intensity; Genome polyprotein (Poliovirus type 1 (strain Mahoney)), P03300; poliovirus polymerase elongation; hits give low values; % elongation, % (compound at 16.7 µg/mL); hit rate 0.66% among 150,000; AID 588519, 2011; in the data active = % elongation below about 90%; also: some results filed as inactive read as strong as hits
Target sequence (P03300 1749-2209 limits assumed): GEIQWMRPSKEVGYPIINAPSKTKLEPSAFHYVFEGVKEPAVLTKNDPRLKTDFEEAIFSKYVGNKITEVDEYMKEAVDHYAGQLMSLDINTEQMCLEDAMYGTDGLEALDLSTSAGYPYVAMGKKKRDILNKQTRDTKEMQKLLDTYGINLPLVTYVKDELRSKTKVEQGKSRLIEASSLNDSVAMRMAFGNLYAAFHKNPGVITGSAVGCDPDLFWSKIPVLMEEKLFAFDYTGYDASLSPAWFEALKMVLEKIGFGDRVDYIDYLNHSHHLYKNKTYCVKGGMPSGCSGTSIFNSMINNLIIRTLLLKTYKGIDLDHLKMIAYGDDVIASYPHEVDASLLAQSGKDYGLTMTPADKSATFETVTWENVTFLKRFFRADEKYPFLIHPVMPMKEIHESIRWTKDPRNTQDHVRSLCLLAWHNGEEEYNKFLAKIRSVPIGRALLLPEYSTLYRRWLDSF
PV pol inh intensity: recorded beside PV pol inh, whose call it bears; % elongation; measured here: total intensity read-out; formula for this scale not given here;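 total fluorescence in place of polarization; lower means less elongation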
An asterisk follows results filed as active. Some of the compounds tested. The share of hits here may be higher or lower than overall.

SMILES	PV pol inh	PV pol inh intensity
CCOc1c(Br)cc(C2C=C(C(=O)O)Nc3ncnn32)cc1OC (stereo unspecified)	110.0	114.0
CCOC(=O)c1ccc(NC(=O)c2cnc(N3CCCC3)nc2C)cc1	111.0	110.0
CCc1ccccc1NC(=O)COCc1cc(-c2ccco2)on1	105.0	109.0
CCCCN(CC)C(=O)c1c[nH]c2ccc(S(=O)(=O)N(C)c3ccc(Cl)cc3)cc2c1=O	113.0	104.0
CCc1ccc(NC(=O)c2ccc(F)c(S(=O)(=O)N3CCc4ccccc4C3)c2)cc1	110.0	113.0
CC(C)CCNC(=O)C1CCN(c2nc3ccc(Cl)cc3[nH]2)CC1	100.0	102.0
Cc1cc(C)n(CCc2nc3c4ccccc4nc(N4CCN(c5ccc(F)cc5)CC4)n3n2)n1	106.0	108.0
Clc1cccc(-n2ncc3c(N4CCN(Cc5ccccc5)CC4)ncnc32)c1	106.0	112.0
COc1cccc(OCCCn2c(-c3ccc(Cl)cc3)nc3ccccc3c2=O)c1	104.0	104.0
Cc1cccc(N2CCN(C(=O)c3oc(=O)c4ccccc4c3-c3ccccc3)CC2)c1C	110.0	110.0
CCN1C(=O)c2ccccc2Sc2ccc(NC(=O)Nc3ccc(C(C)=O)cc3)cc21	109.0	111.0
CCOc1ccc(CNC(=O)CSc2c3c(nc4ccc(Cl)cc24)CCCC3)cc1	104.0	109.0
CCOC(=O)c1ccc(-c2ccc(/C=C(\C#N)C(=O)Nc3cccc(C)c3)o2)cc1	73.0	241.0
COc1ccc(Br)cc1CNC(=O)C1CCCCN1S(=O)(=O)c1ccc(F)cc1 (stereo unspecified)	106.0	110.0
COc1ccc(N(C)C(=O)c2cn(C)c(=O)c3cc(OC)c(OC)cc23)cc1	102.0	105.0
COc1ccccc1-c1cc(NC(=O)COc2ccc(C)c(C)c2)n(-c2ccccc2)n1	107.0	114.0
CC1CCN(S(=O)(=O)c2ccc3nc(N4CCN(c5ccccc5F)CC4)ccc3c2)CC1	114.0	112.0
COc1ccc(S(=O)(=O)N(CC(=O)NCCSc2ccccc2)c2ccc(Cl)cc2)cc1	100.0	102.0
CCCCN(CC)c1ncnc2c1sc1nc(N3CCOCC3)c3c(c12)CCCC3	106.0	108.0
COc1cc2c(=O)c(C(=O)c3ccc(C)c(C)c3)cn(Cc3ccccc3F)c2cc1OC	108.0	104.0
Cc1nc2ccccc2n1CCc1nc2c3ccccc3nc(SCc3ccccc3F)n2n1	108.0	107.0
COc1ccc(-c2cc3ccc(O)c(CN4CCCCC4C)c3oc2=O)cc1OC (stereo unspecified)	105.0	125.0
Cc1cccc(-c2nc(SCC(=O)Nc3ccc4c(c3)OCO4)c(-c3ccccc3)[nH]2)c1	110.0	108.0
COc1ccc(N2CC(NC(=O)c3ccco3)CC2=O)cc1OC (stereo unspecified)	105.0	106.0
CCN1C(=O)c2ccccc2Sc2ccc(NC(=O)c3ccc(C)c(F)c3)cc21	113.0	118.0
O=C(COc1ccc2ccccc2c1)NC1CC(=O)N(c2cccc(F)c2)C1 (stereo unspecified)	115.0	104.0
O=S(=O)(Nc1ccc(Cl)cc1)c1ccc(NS(=O)(=O)c2ccc3c(c2)OCCO3)cc1	103.0	95.0
CCOc1ccc(C2C(C(=O)Nc3ccc(Cl)cc3)=C(C)Nc3nc(C(F)(F)F)nn32)cc1 (stereo unspecified)	102.0	104.0
CCc1ccc(NC(=O)Cn2nc(C(F)(F)F)c3c2CCCC3)cc1	107.0	109.0
O=C(NCCc1csc(-c2ccc(C(F)(F)F)cc2)n1)C(=O)Nc1ccc(F)c(Cl)c1	107.0	114.0
Cc1ccc(-c2nnc(Nc3ccc(S(N)(=O)=O)cc3)c3ccccc23)cc1S(=O)(=O)N1CCOCC1	104.0	110.0
COc1ccc2[nH]c(=O)c(CN(C(=O)c3cccc(Cl)c3)c3ccccc3C)cc2c1	106.0	86.0
Fc1ccc(Nc2ncnc3c2nc2n3CCCCC2)c(F)c1	102.0	103.0
Cc1ccccc1-n1c(SCC(=O)c2ccccc2)nnc1-c1ccc(F)cc1	106.0	99.0
CCc1ccc(NC(=O)Cn2c(=O)n(CCC(=O)NCc3ccc4c(c3)OCO4)c(=O)c3ccccc32)cc1	105.0	108.0
COc1cccc(N2CCN(C(=O)Cn3c(-c4cccs4)cc4ccccc43)CC2)c1	109.0	98.0
Cc1ccccc1C(=O)Nc1ccc2nc(SCC(=O)N3CCc4ccccc43)sc2c1	106.0	99.0
Cc1ccc(NC(=O)Cn2cnc3nc4c(cc3c2=O)CCCC4)cc1Cl	111.0	115.0
Cn1c(=O)c2c(nc(N3CCOCC3)n2Cc2cccc(Br)c2)n(C)c1=O	107.0	108.0
CCOc1ccccc1CNC(=O)CN1C(=O)CCCc2ccccc21	109.0	111.0
CCC(C)n1c(=N)c(C(=O)NCc2ccco2)cc2c(=O)n3cc(C)ccc3nc21 (stereo unspecified)	109.0	120.0
COc1cc(-c2ccno2)ccc1S(=O)(=O)N1CCN(c2ccccc2F)CC1	102.0	107.0
COc1ccc(-n2c(-c3ccco3)nc3c(cnn3-c3ccc(C)cc3)c2=O)cc1	107.0	109.0
O=C(c1cccn1-c1nnc(N2CCCCC2)s1)N1CCN(c2ccccc2)CC1	99.0	105.0
CCOc1ccc(NC(=O)CSc2nc3ccccc3c(=O)n2CCC(=O)NC2CCCCC2)cc1	101.0	96.0

3 compounds from above, ordered by length of the SMILES, descending.
SMILES	PV pol inh	PV pol inh intensity
Cc1ccc(-c2nnc(Nc3ccc(S(N)(=O)=O)cc3)c3ccccc23)cc1S(=O)(=O)N1CCOCC1	104.0	110.0
CCOc1ccc(NC(=O)CSc2nc3ccccc3c(=O)n2CCC(=O)NC2CCCCC2)cc1	101.0	96.0
COc1cc(-c2ccno2)ccc1S(=O)(=O)N1CCN(c2ccccc2F)CC1	102.0	107.0

Other entries
SMILES	PV pol inh	PV pol inh intensity
CC(=O)c1cc(C(=O)Nc2cc(C)cc(C)c2)c2ccccn12	104.0	105.0
COc1ccc(-c2c(C#N)c(SCC(=O)Nc3ccccc3C)nc(C)c2C(=O)Nc2ccc(Cl)cc2)cc1	107.0	105.0
Cn1c(Oc2cccc(Cl)c2)nc2c1c(=O)n(Cc1ccccc1Cl)c(=O)n2C	114.0	113.0
N#Cc1nc(COc2cccc(Cl)c2)oc1NCCc1ccccc1	101.0	103.0
Cc1cc(C)c2sc(NC(=O)c3ccc(S(=O)(=O)N4CCOCC4)cc3)nc2c1	102.0	109.0
CCOc1ccc(NC(=O)CCCN2C(=O)C(c3ccccc3)Oc3cccnc32)cc1 (stereo unspecified)	107.0	112.0
COc1ccc2c(c1)NC(c1ccc(OCC(C)C)cc1)=NC(c1ccncc1)=N2	106.0	95.0
CC(C)(C)NC(=O)Cn1cc(S(=O)(=O)Cc2ccccc2Cl)c2ccccc21	105.0	109.0
CCOC(=O)c1cnc2c(Cl)c(Cl)ccc2c1NCCN1CCOCC1	107.0	107.0
O=C(Cn1nnc(-c2ccccc2Cl)n1)Nc1ccc(Br)cc1	104.0	112.0
COc1ccccc1-n1nc(-c2ccccc2)c2cnc3c(F)cc(F)cc3c21	105.0	105.0
COc1cc(OC)c(-c2cc(C(=O)NCc3ccc(F)cc3)c3c(-c4ccccc4)[nH]nc3n2)cc1OC	103.0	99.0
COc1ccc(C(=O)Nc2ccc(-n3nncc3-c3ccccc3)cc2)cc1OC	110.0	107.0
O=C1Cc2cc(S(=O)(=O)N3CCCCC3)cc3c2N1CCC3	114.0	112.0
CCOc1ccc(NC(=O)CC2C(=O)N(c3ccccc3)C(=O)N2Cc2ccc3c(c2)OCO3)cc1 (stereo unspecified)	105.0	108.0

Already shown: an excerpt of the list.
SMILES	PV pol inh	PV pol inh intensity
CCC(C)n1c(=N)c(C(=O)NCc2ccco2)cc2c(=O)n3cc(C)ccc3nc21 (stereo unspecified)	109.0	120.0
COc1cc(-c2ccno2)ccc1S(=O)(=O)N1CCN(c2ccccc2F)CC1	102.0	107.0
COc1ccc(-n2c(-c3ccco3)nc3c(cnn3-c3ccc(C)cc3)c2=O)cc1	107.0	109.0
O=C(c1cccn1-c1nnc(N2CCCCC2)s1)N1CCN(c2ccccc2)CC1	99.0	105.0
CCOc1ccc(NC(=O)CSc2nc3ccccc3c(=O)n2CCC(=O)NC2CCCCC2)cc1	101.0	96.0
CC(=O)c1cc(C(=O)Nc2cc(C)cc(C)c2)c2ccccn12	104.0	105.0
COc1ccc(-c2c(C#N)c(SCC(=O)Nc3ccccc3C)nc(C)c2C(=O)Nc2ccc(Cl)cc2)cc1	107.0	105.0
Cn1c(Oc2cccc(Cl)c2)nc2c1c(=O)n(Cc1ccccc1Cl)c(=O)n2C	114.0	113.0
N#Cc1nc(COc2cccc(Cl)c2)oc1NCCc1ccccc1	101.0	103.0
Cc1cc(C)c2sc(NC(=O)c3ccc(S(=O)(=O)N4CCOCC4)cc3)nc2c1	102.0	109.0
CCOc1ccc(NC(=O)CCCN2C(=O)C(c3ccccc3)Oc3cccnc32)cc1 (stereo unspecified)	107.0	112.0
COc1ccc2c(c1)NC(c1ccc(OCC(C)C)cc1)=NC(c1ccncc1)=N2	106.0	95.0
CC(C)(C)NC(=O)Cn1cc(S(=O)(=O)Cc2ccccc2Cl)c2ccccc21	105.0	109.0
CCOC(=O)c1cnc2c(Cl)c(Cl)ccc2c1NCCN1CCOCC1	107.0	107.0
O=C(Cn1nnc(-c2ccccc2Cl)n1)Nc1ccc(Br)cc1	104.0	112.0
COc1ccccc1-n1nc(-c2ccccc2)c2cnc3c(F)cc(F)cc3c21	105.0	105.0
COc1cc(OC)c(-c2cc(C(=O)NCc3ccc(F)cc3)c3c(-c4ccccc4)[nH]nc3n2)cc1OC	103.0	99.0
COc1ccc(C(=O)Nc2ccc(-n3nncc3-c3ccccc3)cc2)cc1OC	110.0	107.0
O=C1Cc2cc(S(=O)(=O)N3CCCCC3)cc3c2N1CCC3	114.0	112.0
CCOc1ccc(NC(=O)CC2C(=O)N(c3ccccc3)C(=O)N2Cc2ccc3c(c2)OCO3)cc1 (stereo unspecified)	105.0	108.0

Later entries
SMILES	PV pol inh	PV pol inh intensity
CCc1ccc(NC(=O)CSc2nc3c(oc4ccccc43)c(=O)n2-c2cccc(C)c2)cc1	103.0	104.0
Cc1ccc(CNC(=O)CCNS(=O)(=O)c2ccc3c(c2)oc(=O)n3C)cc1	105.0	107.0
CCN(CC)c1cc(C)c2cc(NC(=O)c3cc(OC)cc(OC)c3)ccc2n1	107.0	108.0
CCn1cc(S(=O)(=O)c2ccc(C)cc2C)c(=O)c2cc(F)c(N3CCCC3)cc21	105.0	106.0
CCSc1ncc(Cl)c(C(=O)Nc2ccc(S(=O)(=O)N3CCCCC3CC)cc2)n1 (stereo unspecified)	113.0	110.0
Cc1cc(C)c(NC(=O)Cn2nnc(C(=O)NCc3cccs3)c2N)c(C)c1	109.0	111.0
Cn1nc(C(=O)Nc2ccccc2C#N)c2c1-c1ccccc1SC2	111.0	112.0
COc1ccccc1Nc1c2c(nc3ccc(NC(=O)c4ccc(OC)c(OC)c4)cc13)CCCC2	103.0	100.0
O=C1CCCc2cc(S(=O)(=O)NCC3CCC(C(=O)Nc4ccccc4F)CC3)ccc2N1 (stereo unspecified)	101.0	102.0
Cc1ccc(C(=O)CSc2nc(C)cc(C)c2C(=O)Nc2cccc(C)c2)cc1	105.0	106.0
CCC(=O)N1CCc2cc(Br)cc(S(=O)(=O)CCC(=O)NCc3ccc(F)cc3)c21	102.0	107.0
CCOc1ccc(CCNC(=O)Cn2nnc(-c3ccc(C(F)(F)F)cc3)n2)cc1OCC	107.0	110.0
CCOc1ccccc1NC(=O)CCS(=O)(=O)c1ccc2c(c1)oc(=O)n2C	110.0	106.0
Cc1cccc(OCC(=O)Nc2ccc(-c3nc4ccccc4o3)cc2)c1C	102.0	111.0
CCCCN(CCCC)CCCNC(=O)c1cc(-c2ccc(Cl)s2)nc2ccccc12	103.0	108.0
Cc1nc2cccnc2n1C1CCN(C(=O)Nc2ccc(Cl)cc2)CC1	106.0	101.0
Cc1ccc(CNC(=O)CCc2nc3cccnc3n2Cc2ccccc2)cc1	106.0	104.0
Cc1ccc(CN(Cc2ccco2)C(=O)COc2cc(C)c(Cl)c(C)c2)cc1	108.0	113.0
CCn1c(=O)c2cc(C(=O)NCCc3ccc(Cl)cc3)sc2c2ccccc21	104.0	108.0
Cc1c(C(=O)N2CCCC2)oc2c1-c1nn(CC(=O)NC(C)c3ccccc3)cc1CC2 (stereo unspecified)	108.0	107.0
Cc1cccc(NC(=O)c2sc(-n3nc(C)c(CCC(C)C)c3C)nc2C)c1C	111.0	111.0
COc1ccccc1NC(=O)Cn1c(=O)n(CCCCCC(=O)NCc2ccccc2)c(=O)c2sccc21	105.0	106.0
CCOC(=O)C(=O)Nc1nnc2n1CCS2	98.0	104.0
Cc1ccc(NS(=O)(=O)c2ccc3[nH]c4c(c3c2)CCCCCC4)cc1C	113.0	105.0
CCc1ccc(-n2c(=O)c3cccnc3n2CC(=O)N(CC)c2cccc(C)c2)cc1	111.0	113.0
Cc1ccc(C2=Nc3ccccc3N(CC(=O)NCc3ccccc3Cl)C(=O)C2)cc1C	107.0	109.0
Cc1cccc(-c2noc(-c3ccc(N4CCN(C)CC4)c([N+](=O)[O-])c3)n2)c1	109.0	111.0
O=C(Nc1cccc2cccnc12)c1cccc2ccccc12	107.0	110.0
COCCNC(=O)c1c(NC(=O)Cc2coc3cc(C)ccc23)sc2c1CCCC2	119.0	119.0
Cc1cccc(CCNC(=O)Cn2ncc3c(=O)oc4ccccc4c32)c1	108.0	108.0
O=C(Nc1cccc(Br)c1)Nc1nc2c(s1)CCCCCC2	106.0	113.0
